High-throughput results deposited in PubChem BioAssay by several laboratories.
Arbovirus anti – arbovirus infection inhibition | 0.37% of 200,000 active | arbovirus infection cell-based antiviral screen | inhibition, % at 10 µM;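 active = inhibition from about 30%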;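 note: bluetongue infection of BSR cells; cell survival read as ATP light after 72 h; 0% = infected wells without compound and 100% = uninfected wells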
Mtb growth – M. tuberculosis H37Rv growth inhibitors, H37Rv strain (AID 1626) | M. tuberculosis H37Rv growth inhibition; higher % means a stronger effect | one-dose inhibition, % at 10 µM; IC50 in µM for titrated hits | 0.95% of 220,000 active;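 active = confirmed in a dose series; inconclusive = inhibition above 80% but not taken into the dose series; inactive = below 80% or under 30% at every dose of the series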;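 note: bacteria incubated seven days before Alamar blue readout; 0% = bacteria only wells and 100% = bacteria with antibiotic wells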
RecA intein inh – Mtb RecA intein splicing inhibition | P9WHJ3 | cell-free RecA intein splicing, fluorescence | inhibition, %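 (about 9 µM by stock and volumes)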 | 0.75% of 290,000 active; in the data active = inhibition above about 30%; inconclusive = no clear call, values can overlap the other calls;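 note: 0% = vehicle wells and 100% = reference inhibitor control wells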
Target sequence (P9WHJ3 whole entry, looked up): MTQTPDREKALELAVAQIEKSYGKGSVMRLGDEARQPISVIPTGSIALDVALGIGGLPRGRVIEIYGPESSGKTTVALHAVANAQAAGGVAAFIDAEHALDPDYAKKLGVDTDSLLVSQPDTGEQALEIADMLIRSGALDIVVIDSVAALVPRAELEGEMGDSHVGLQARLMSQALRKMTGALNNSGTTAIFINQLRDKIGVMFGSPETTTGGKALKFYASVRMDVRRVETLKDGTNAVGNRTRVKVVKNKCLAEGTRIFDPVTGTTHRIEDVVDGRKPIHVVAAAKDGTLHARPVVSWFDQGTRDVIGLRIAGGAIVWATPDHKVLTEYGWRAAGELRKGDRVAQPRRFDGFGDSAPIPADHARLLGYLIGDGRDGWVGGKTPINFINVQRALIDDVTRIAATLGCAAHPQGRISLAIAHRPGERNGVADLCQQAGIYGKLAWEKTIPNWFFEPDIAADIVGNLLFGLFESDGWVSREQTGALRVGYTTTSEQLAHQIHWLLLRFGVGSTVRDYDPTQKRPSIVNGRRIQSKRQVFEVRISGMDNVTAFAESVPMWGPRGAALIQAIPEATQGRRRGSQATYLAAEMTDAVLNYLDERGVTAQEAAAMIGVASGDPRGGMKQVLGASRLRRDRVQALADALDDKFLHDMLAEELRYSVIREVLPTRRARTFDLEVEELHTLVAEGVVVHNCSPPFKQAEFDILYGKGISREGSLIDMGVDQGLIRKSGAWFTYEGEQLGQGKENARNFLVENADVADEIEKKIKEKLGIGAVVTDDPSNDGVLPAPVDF
YopH inh – blocks Yersinia enterocolitica YopH tyrosine phosphatase. AID 898. fluorescence Ex485/Em525. inhibition, %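 (about 10 µM by stock and volumes)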. 0.16% of 140,000 active;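 active = inhibition of 50% or more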;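 note: controls were vehicle for no effect and minimum signal wells for full effect; inactives centre near -20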
Mtb bLac sens – beta-lactam sensitization of Mtb H37Rv | M. tuberculosis H37Rv growth with meropenem, percent inhibition; hits of this screen are not shown here | inhibition, % at 25 µM | 0.27% of 330,000 active;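 active = about 74% or more and at least 40 points above the plate without the antibiotic, then above 30% in a dose series; inconclusive = first-round hits that could not be retested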;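 note: growth measured after seven days incubation then overnight dye step; 0% = bacteria only wells and 100% = bacteria with antibiotic; twin plates without the antibiotic show which effects depend on it; some results filed as inactive read as strong as hits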
Arbovirus anti repeat – further read-out of Arbovirus anti, marked with its call; inhibition, %; measured here: 10K subset replicate screen; many hits read low in the repeat;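 first of two repeat runs on a subset; 0% = infected and 100% = uninfected wells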
* = called active by the depositor; ? = inconclusive; / = no result given. A portion of the library. The share of hits here may be higher or lower than overall.

SMILES	Arbovirus anti	Mtb growth	RecA intein inh	YopH inh	Mtb bLac sens	others
O=C(N/N=C/c1ccncc1)c1ccccn1	/	/	-1.0	/	8
O=C(Nn1c(-c2ccccc2)nc2ccccc2c1=O)c1ccc([N+](=O)[O-])cc1	6	2%	0.7	-32	0
CC(Sc1nc(-c2ccccc2)cc(C(F)(F)F)n1)C(=O)Nc1ccc2c(c1)OCO2 (stereo not given)	-2	21%	0.7	-25	40
CCc1n[nH]c(=S)n1/N=C/c1cc(OC)cc([N+](=O)[O-])c1O	0	2%	-1.7	/	-5
Cc1ccccc1NC(=S)NCc1ccc2[nH]c3c(c2c1)CCCC3	-34	/	0.8	-18	1
Cc1cc2oc(C(=O)Nc3cccnc3)c(C)c2cc1C	-4	7%	-3.2	-11	-9	Arbovirus anti repeat=-8
COCCNC(=O)C(=O)N/N=C/c1cccs1	4	-5%	-5.3	/	0
CC(=O)N(CCCN(C)C)CCC(C)CCC=C(C)C (stereo not given)	4	-17%	-0.3	10	10	Arbovirus anti repeat=-3
CC(C)N1C(=O)/C(=C\c2nc3ccccc3c(=O)[nH]2)c2ccccc21	10	-3%	14	-23	1
O=C(NC12CC3CC(CC(C3)C1)C2)c1ccc([N+](=O)[O-])o1	/	/	-18	/	100
O=C(CNC(=O)c1ccccc1Cl)Nc1ccc(Br)cc1C(=O)c1ccccc1	-5	6%	0.1	-27	0
CCOC(=O)N1CCN(C(=O)CCCn2nc(C)c3sc4ccccc4c3c2=O)CC1	-3	3%	-1.3	-18	10
COc1ccc(-n2c(C)cc(C)c(C(C)=O)c2=S)cc1	-4	3%	-0.8	-18	-6
COc1ccccc1N1CCN(C(=O)c2ccc(CSc3ccccc3)cc2)CC1	-10	9%	11	11	8
Cc1cccc(C)c1N1C(=O)CC(N2CCSCC2)C1=O (stereo not given)	/	2%	-1.6	/	1
CC(=O)N1CCN(C(=O)COc2ccccc2C(=O)Nc2ccccc2)CC1	16	7%	3.1	/	0
CCCNC(=O)N(C)c1nncnc1C(=O)NC	5	-5%	-1.0	-32	-16
COc1ccc(C(=O)NNC(=O)Nc2ccc(Cl)cc2)cc1	-4	-3%	0.6	/	5
CCC(=O)NCCc1nc2cc(NC(=O)c3ccccc3Cl)ccc2n1C	/	/	0.2	/	-1
CCN(CC)S(=O)(=O)c1ccc(NN=C(C#N)C#N)cc1	4	0%	38*	-4	-5
COC(=O)C(C)(C)NC(=O)c1cccs1	9	1%	3.3	-23	12
Cc1noc(C)c1CN1C(=O)c2ccc([N+](=O)[O-])cc2C1=O	/	/	-1.1	/	-4
COc1ccc(N2CC(C(=O)NCc3ccccc3)CC2=O)cc1 (stereo not given)	3	-5%	-0.7	-6	-6
COc1cccc(N=Cc2c(O)n(-c3cccc(C)n3)c(=O)c3ccccc23)c1	-6	10%	-0.3	-2	0
COc1ccc([C@@H]2[C@@H]3C(=O)N(C(C)(C)C)C(=O)[C@@H]3[C@]3(C)C(=O)N(c4cccc(Cl)c4)C(=O)N23)cc1	/	/	-0.7	/	-3
Cc1cc(Cl)c(Cl)cc1S(=O)(=O)NCCCn1ccnc1	/	/	-4.6	/	1
CN1CCN(C(=S)Nc2cccc(S(=O)(=O)N(C)C)c2)CC1	1	-2%	-0.1	/	3
Cc1cc(C)c(NS(=O)(=O)c2cccc3cccnc23)c(C)c1	-5	-1%	-1.2	/	-12
COc1cccc(NC(=O)NC(C)C2CC3CCC2C3)c1 (stereo not given)	-4	?	/	/	100
CCSCc1nnc(SCC(=O)c2ccc(OC)cc2)n1C	7	0%	0.2	-25	-9
Fc1ccc2c(c1)nnn2C1CCN(Cc2c(Cl)cccc2Cl)CC1	-3	4%	2.8	4	-4
C[C@]12CCC3=C4CCC(=O)C=C4CC[C@H]3C1CC[C@@H]2O (stereo not given in full)	/	/	-1.8	/	2
COC(=O)c1ccc(CN2C(=O)NC3(CCC(C)CC3)C2=O)cc1 (stereo not given)	1	3%	-2.9	/	-11
Cc1ccc(N=C2NC(=O)/C(=C\c3cccs3)S2)cc1C	-1	17%	-2.0	-14	46
N#Cc1nc(N2CCCCC2)nc(N2CCOCC2)n1	-7	-3%	5.8	16	2
Cc1ccc(-c2ccc(S(=O)(=O)NCc3ccco3)cc2)cc1	3	1%	-0.6	/	2
CCC(C)NC(=O)CSC1=Nc2ccccc2C2=NC(CC(=O)NCc3ccc(F)cc3)C(=O)N12 (stereo not given)	6	-5%	0.2	-26	-3
C/C(=N\NC(=O)C(c1ccccc1)c1ccccc1)c1ccccn1	-30	6%	-3.3	3	54
COc1cc(C2/C(=C(\O)c3ccc4c(c3)OCCO4)C(=O)C(=O)N2c2nnc(C)s2)cc(OC)c1OC (stereo not given)	/	/	-3.6	/	2
c1ccc2nc3c(nc2c1)OCC1CCCCN31 (stereo not given)	/	/	-2.9	/	3
Nc1c(-c2ccccc2)cnn1-c1cccc([N+](=O)[O-])c1	-3	-2%	-1.4	7	-9
COc1ccc(CCC(=O)Nc2nnc(C(F)(F)F)s2)cc1	/	/	0.2	/	3
COc1ccc(CCNC(=O)c2[nH]c(C)c(C(C)=O)c2C)cc1OC	2	-15%	-0.9	-27	-10
CCOCc1c(C(=O)NC2=Nc3ccccc3NC(CC)=C2C(=O)OCC)oc2ccccc12	-9	6%	14	/	4
O=C(NC1CCCCCC1)C(=O)NC1CCCC1	5	-10%	1.8	-18	-9
CC(CCN(C)C)OC(=O)c1ccc(C(C)c2ccccc2)o1 (stereo not given)	1	-2%	1.7	-42	14
CCOC(=O)C1CCN(CC(=O)c2ccc(O)c(C)c2O)CC1	/	/	-9.7	/	-1
COc1ccc(-c2nnc(SCC(=O)Nc3ncc(C(F)(F)F)cc3Cl)n2CC(C)C)cc1	-5	-3%	-4.2	-19	84
O=C(NCc1cccc(F)c1)C1CCC(=O)N(C2CCCC2)C1 (stereo not given)	/	/	1.4	/	4
CC(=O)N1CCN(Cc2nc3cc([N+](=O)[O-])ccc3n2C)CC1	/	/	-0.6	/	-8
CC(=O)NC1=NN(C(C)=O)C(C)(CCS(=O)(=O)c2ccc(Br)cc2)S1 (stereo not given)	3	-6%	2.1	-28	0
CCN(C(=O)Cc1cccs1)c1nnc(-c2cccnc2)s1	2	-2%	/	-42	-5
O=C(c1ccc(Cl)c(S(=O)(=O)N2CCOCC2)c1)N1CCN(c2ccccc2F)CC1	/	/	-0.4	/	-18
COc1ccc(C(=O)N(C)C2CCCc3ccccc32)cc1OC1CCN(C(C)C)CC1 (stereo not given)	/	/	-0.2	/	-9
O=C(c1ccco1)N1CCN(c2nnc(-c3ccccc3)c3ccccc23)CC1	-10	1%	5.0	-23	1
Cc1ccc(S(=O)(=O)N(Cc2ccccc2)C(C)C)cc1	/	/	7.4	/	6
O=C(NCCN1C(=O)CSC1=O)C1CC(=O)N(c2ccccc2)C1 (stereo not given)	4	-11%	1.7	-26	8
COC(=O)c1ccc(NC(=O)CSCC(=O)OCC(=O)c2ccc(Br)cc2)cc1	1	-1%	-8.1	-4	-7
CCN(CC)S(=O)(=O)c1ccc(N2CCN(CCOc3ccc(OC)cc3)CC2)nc1	/	/	0.4	/	65
Cc1ccc(S(=O)(=O)NCC(=O)Nc2ccc3c(c2)OCCO3)cc1	/	/	-2.4	/	4
Later entries.
SMILES	Arbovirus anti	Mtb growth	RecA intein inh	YopH inh	Mtb bLac sens	others
Cc1cc(NC(=O)c2c([N+](=O)[O-])c(C)nn2C)no1	3	0%	-1.6	5	-7
Cc1ccc(C(=O)CCC(=O)OCC(=O)Nc2ccc3[nH]c(=O)[nH]c3c2)cc1	/	/	-2.1	/	4
O=C(/C=C/c1ccc(F)cc1)NC(=S)NC1CCCCC1	/	8%	-4.4	/	-11
COc1cc(NC(=O)N[C@@H](CCSC)C(=O)O)cc(OC)c1	/	-6%	0.3	/	-1
CC(=O)c1ccc(Nc2cc(C)nc3c(C)cccc23)cc1	-22	4%	-1.2	/	5
O=C(Nc1cccc2ncccc12)c1cccc(Br)c1	/	/	-0.4	/	0
O=C(N/N=C/c1cccc([N+](=O)[O-])c1)c1ccc(CN2CCOCC2)cc1	6	2%	-0.9	-15	-10
O=C(CCC1CCCC1)Nc1cccn(Cc2ccccc2Br)c1=O	/	8%	9.9	/	-2
COc1cccc(C2=CC(c3cccs3)n3nnnc3N2)c1 (stereo not given)	-6	-11%	-2.3	-4	24

A stretch of the results above:
SMILES	Arbovirus anti	Mtb growth	RecA intein inh	YopH inh	Mtb bLac sens	others
O=C(c1ccc(Cl)c(S(=O)(=O)N2CCOCC2)c1)N1CCN(c2ccccc2F)CC1	/	/	-0.4	/	-18
COc1ccc(C(=O)N(C)C2CCCc3ccccc32)cc1OC1CCN(C(C)C)CC1 (stereo not given)	/	/	-0.2	/	-9
O=C(c1ccco1)N1CCN(c2nnc(-c3ccccc3)c3ccccc23)CC1	-10	1%	5.0	-23	1
Cc1ccc(S(=O)(=O)N(Cc2ccccc2)C(C)C)cc1	/	/	7.4	/	6
O=C(NCCN1C(=O)CSC1=O)C1CC(=O)N(c2ccccc2)C1 (stereo not given)	4	-11%	1.7	-26	8
COC(=O)c1ccc(NC(=O)CSCC(=O)OCC(=O)c2ccc(Br)cc2)cc1	1	-1%	-8.1	-4	-7
CCN(CC)S(=O)(=O)c1ccc(N2CCN(CCOc3ccc(OC)cc3)CC2)nc1	/	/	0.4	/	65
Cc1ccc(S(=O)(=O)NCC(=O)Nc2ccc3c(c2)OCCO3)cc1	/	/	-2.4	/	4
Cc1cc(NC(=O)c2c([N+](=O)[O-])c(C)nn2C)no1	3	0%	-1.6	5	-7
Cc1ccc(C(=O)CCC(=O)OCC(=O)Nc2ccc3[nH]c(=O)[nH]c3c2)cc1	/	/	-2.1	/	4
O=C(/C=C/c1ccc(F)cc1)NC(=S)NC1CCCCC1	/	8%	-4.4	/	-11
COc1cc(NC(=O)N[C@@H](CCSC)C(=O)O)cc(OC)c1	/	-6%	0.3	/	-1
CC(=O)c1ccc(Nc2cc(C)nc3c(C)cccc23)cc1	-22	4%	-1.2	/	5
O=C(Nc1cccc2ncccc12)c1cccc(Br)c1	/	/	-0.4	/	0
O=C(N/N=C/c1cccc([N+](=O)[O-])c1)c1ccc(CN2CCOCC2)cc1	6	2%	-0.9	-15	-10
O=C(CCC1CCCC1)Nc1cccn(Cc2ccccc2Br)c1=O	/	8%	9.9	/	-2
COc1cccc(C2=CC(c3cccs3)n3nnnc3N2)c1 (stereo not given)	-6	-11%	-2.3	-4	24
